Source: PubChem BioAssay (several laboratories)
MT1-MMP promoter = inhibitors of MT1-MMP promoter transcription, cell-based, luciferase reporter, luminescence (AID 618); MT1-MMP promoter luciferase reporter cells, luminescence; calls from a first round at 10 µM; hits with a dose series show EC50 in µM; 87,000 compounds, 0.62% hits;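 active = over half of the reporter light lost at 10 µM or EC50 under 50 µM; inactive = the rest and hits that failed the dose series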;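 also: actives suppress MT1-MMP promoter-driven transcription so potencies describe inhibitors; HT1080 fibrosarcoma cells; overnight exposure; toxic or luciferase-blocking compounds were not removed from the actives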
WNV NS2B-NS3 inh = inhibitors of WNV NS2B-NS3 protease, primary screen, biochemical, fluorogenic substrate. Genome polyprotein (West Nile virus), P06935. fluorogenic substrate Ex360/Em465; active compounds read low. z-score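 (tested at a level between 10 and 100 µM)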. 65,000 compounds, 0.18% hits. AID 577, 2007;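 active = z-score at -3 or under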;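 also: score is relative to mean and spread of the compound wells of a plate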
Target sequence (P06935 1371-1501 limits assumed): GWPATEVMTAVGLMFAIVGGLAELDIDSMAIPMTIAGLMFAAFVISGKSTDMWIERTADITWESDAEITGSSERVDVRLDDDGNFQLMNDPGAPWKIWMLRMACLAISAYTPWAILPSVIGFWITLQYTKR
Target sequence (P06935 1502-1679 limits assumed): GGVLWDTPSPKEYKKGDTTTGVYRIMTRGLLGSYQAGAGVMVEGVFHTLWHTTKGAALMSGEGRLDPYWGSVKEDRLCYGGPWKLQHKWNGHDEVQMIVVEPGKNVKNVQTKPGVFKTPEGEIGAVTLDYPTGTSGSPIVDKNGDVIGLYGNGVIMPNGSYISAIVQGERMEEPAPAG
Hsc70 = Hsc70 inhibitors, probe displacement, primary screen, biochemical, fluorescence polarization (AID 568) | displacement, % at 20 µM, or IC50 in µM where a hit was titrated | 83,000 tested, under 10 active | Hsc70 fluorescence polarization, probe displacement; higher % means a stronger effect; strong numbers were not always called active;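 active = displacement above 50% without optical interference and an IC50 on retest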;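 also: ATPase domain with a fluorescein-tagged ATP probe; 0% = vehicle and 100% = excess ADP; read after one hour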
An asterisk follows results filed as active; i = inactive; / = not tested or not shown.

compound | MT1-MMP promoter | WNV NS2B-NS3 inh | Hsc70
CCC(C)[C@H](NC(=O)NC1CCCc2ccccc21)C(=O)O (stereo partly specified) | i | 0.23 | -0.8%
COc1cccc(OC)c1C(=O)Nc1ccc(CN2CCOCC2)cc1 | i | -0.05 | 3.2%
COc1cc(C(=O)OCC(=O)c2cc(C)n(C)c2C)cc(OC)c1OC | i | -1.56 | -8.0%
c1ccc(CSc2nnc([C@@H]3CCCN3)o2)cc1 | i | / | -4.4%
O=C(CSc1ccc2nnc(-c3ccccc3)n2n1)N1CCN(c2ccccc2)CC1 | i | 0.03 | 2.4%
CCOc1ccc2nc(NC3=NCN(Cc4ccco4)CN3)nc(C)c2c1 | i | 0.11 | 0.5%
COC(=O)C1=C(Nc2ccc(C)cc2)C=C(C)C(C(=O)OC)C1c1ccc(OC)cc1 (stereo unspecified) | i | / | -1.2%
Cc1ccc2nc(-c3ccc(SCC(=O)O)nc3)[nH]c2c1 | i | 0.67 | -1.0%
CC(C)CCNC(=O)C1C2C=CC3(CN(Cc4ccccc4Cl)C(=O)C13)O2 (stereo unspecified) | i | 0.36 | 1.9%
CC(=O)n1cc(C(C[N+](=O)[O-])SCCN)c2ccccc21 (stereo unspecified) | i | / | -2.4%
CCN1CCN(CCNC(=O)C2CCN(Cc3nc(-c4ccc(Cl)cc4)oc3C)CC2)CC1 | i | 0.01 | 2.0%
Cc1ccc(C(=O)Nc2nnc(-c3ccncc3)s2)o1 | i | 0.89 | 3.3%
Cc1ccccc1OCCCC(=O)Nc1ccc2c(c1)OCO2 | i | -0.08 | 8.7%
COc1cccc(N2C(=O)C(O)=C(C(C)=O)C2c2ccc(OC)c(OC)c2)c1 (stereo unspecified) | i | 0.37 | -4.6%
CCOC(=O)N1CCN(C(=O)C(c2ccccc2)c2ccccc2)CC1 | i | / | 2.3%
Cc1onc(-c2c(F)cccc2Cl)c1C(=O)Nc1ccc(S(=O)(=O)Nc2ncccn2)cc1 | i | 1.18 | 0.2%
CCOc1ccc(S(=O)(=O)NCCN2CCOCC2)c2ccccc12 | i | -0.54 | -5.3%
Cc1nc2c(-c3ccc(F)cc3)c(C)nn2c(C)c1CCC(=O)N1CCN(c2ccccn2)CC1 | i | 0.49 | -1.4%
COc1ccc(-c2nc3n(n2)C(c2ccccc2)C2=C(CCCC2=O)N3)cc1OC (stereo unspecified) | i | -0.94 | 3.8%
Cc1ccccc1NC(=O)c1ccc(-c2ccc(Cl)cc2Cl)o1 | i | / | 2.6%
COc1ccccc1NC(=O)c1cc2ccccc2o1 | i | / | -1.8%
O=C(Nc1sc2c(c1-c1nc3ccccc3[nH]1)CCCC2)C1CC1 | i | / | -2.4%
COc1ccccc1CNC(=O)c1cn(C)c(=O)c2cc(OC)c(OC)cc12 | i | / | -4.3%
CCOc1ccc(-c2noc(=O)[nH]2)cc1 | i | -0.88 | -1.6%
CC(NC(=O)OCc1ccccc1)C(=O)NCC1CCCO1 (stereo unspecified) | i | 2.2 | 6.7%
CC(=O)c1ccc(C(=O)Nc2nnc(-c3ccc(Cl)cc3)o2)cc1 | i | -1.24 | 1.5%
Brc1ccccc1-c1nnc2sc(Cc3ccccc3)nn12 | i | -0.00146 | -1.2%
CC(=O)N1CCc2cc(Br)cc(S(=O)(=O)N3CCN(c4ccccn4)CC3)c21 | i | 0.52 | -3.3%
COc1ccc(C)cc1Nc1cc(C)nc2nc(C)nn12 | i | 0.12 | -1.0%
N#Cc1cc2c(nc1SCC1COc3ccccc3O1)CCC2 (stereo unspecified) | i | 1.82 | 3.9%

Record cards, as listed above:
Shown for `Cc1ccc(C(=O)Nc2nnc(-c3ccncc3)s2)o1` = MT1-MMP promoter = i; WNV NS2B-NS3 inh = 0.89; Hsc70 = 3.3%
Shown for `CCC(C)[C@H](NC(=O)NC1CCCc2ccccc21)C(=O)O` (stereo partly specified) = MT1-MMP promoter = i; WNV NS2B-NS3 inh = 0.23; Hsc70 = -0.8%

More entries follow:
compound | MT1-MMP promoter | WNV NS2B-NS3 inh | Hsc70
COc1ccc(C)cc1C(=O)CCC(=O)Nc1ccccc1N1CCOCC1 | i | -0.53 | -3.9%
CC(=O)c1nc2ccccc2n1S(=O)(=O)c1ccc(C)cc1 | i | -1.37 | -8.1%
Cn1nnc(NC(=O)CSc2ccc(Cl)cc2)n1 | i | -1.21 | 4.9%
Cc1cc(N)n(-c2ncnc3scc(-c4ccc(Cl)cc4)c23)n1 | i | / | -3.7%
O=c1c2cc(N3CCOCC3)ccc2[nH]c(=S)n1CCCN1CCCCC1 | i | 0.42 | -5.5%
CCCn1c(N)[n+](CC(=O)c2ccco2)c2ccccc21 | i | / | -0.2%
O=C(NCc1ccncc1)c1cnccn1 | i | 1.87 | 3.3%
Cn1c(CNc2nc3ccccc3n2CCN2CCCCC2)nc2ccccc21 | i | 0.01 | -1.4%
Cc1c(C#N)c2ccccc2n1CC(=O)O | i | -0.12 | 4.0%
CCOC(=O)c1cc(C#N)c(N)nc1C | i | 0.000225 | 0.9%
Cn1nnnc1SCc1csc(Nc2ccccc2)n1 | i | -1.7 | 0.4%
Cc1oc2nc(SCCCC(=O)NCCO)nc(N)c2c1C | i | -0.09 | -1.4%
CCc1nc(SCc2cccnc2)[nH]c(=O)c1C | i | 0.04 | 5.9%
O=C(CSc1nnc(Cc2cccs2)n1Cc1ccco1)Nc1cc(Cl)cc(Cl)c1 | i | -0.48 | -9.5%
CCc1cc(-c2[nH]ncc2-c2ccc3c(c2)OCO3)c(O)cc1O | i | -0.68 | 1.2%

By substructure, the compounds so far with a COOH group (3)
compound | MT1-MMP promoter | WNV NS2B-NS3 inh | Hsc70
CCC(C)[C@H](NC(=O)NC1CCCc2ccccc21)C(=O)O (stereo partly specified) | i | 0.23 | -0.8%
Cc1ccc2nc(-c3ccc(SCC(=O)O)nc3)[nH]c2c1 | i | 0.67 | -1.0%
Cc1c(C#N)c2ccccc2n1CC(=O)O | i | -0.12 | 4.0%

Fetched by structure from the list above:
compound | MT1-MMP promoter | WNV NS2B-NS3 inh | Hsc70
Cc1oc2nc(SCCCC(=O)NCCO)nc(N)c2c1C | i | -0.09 | -1.4%
COc1ccc(C)cc1C(=O)CCC(=O)Nc1ccccc1N1CCOCC1 | i | -0.53 | -3.9%

(more compounds)
compound | MT1-MMP promoter | WNV NS2B-NS3 inh | Hsc70
Cn1cnnc1SCCC(=O)Nc1ccccc1 | i | -0.31 | 2.2%
O=C(c1ccccc1)c1ccc(OCC(O)CN2CCN(S(=O)(=O)N3CCCCC3)CC2)cc1 (stereo unspecified) | i | / | -3.6%
Cc1cc2nc(NC3=NCN(CCN4CCOCC4)CN3)nc(C)c2cc1C | i | 0.28 | -0.8%
CC1CCCCN1C(=O)CSc1nnc(CSc2ncccn2)n1C (stereo unspecified) | i | / | -3.6%
CCOC(=O)c1sc2ncn(C(C)C(=O)OC)c(=O)c2c1C (stereo unspecified) | i | 1.33 | -0.3%
C=C1C2(C(=O)Nc3nccs3)CCC(C2)C1(C)C (stereo unspecified) | i | -0.06 | -1.0%
O=c1[nH]c(SCc2ccccc2Cl)nc2c1CCCC2 | i | 0.74 | 1.3%
CCN(CC)C(=O)Cn1cnc2c1c(=O)n(C)c(=O)n2C | i | 0.00441 | -3.1%
O=C(Nc1cccc2c1C(=O)NC2=O)c1ccc(S(=O)(=O)N2CCCC2)cc1 | i | -0.73 | 12.0%
Cc1cc(Nc2ccc3ccccc3c2)n2ncnc2n1 | i | 0.33 | 2.0%
Cc1cccc(N2CCc3c2nc2ccc(Br)cc2c3N)c1 | i | / | -3.5%
COc1ccc(-c2c(C#N)c(C)nc3c2C(=O)c2ccccc2-3)cc1 | i | / | -13.8%
C=CCn1c(SCC(=O)Nc2sccc2C#N)nc2sc(C)c(C)c2c1=O | i | / | -2.2%
CCCn1c(C)cc(=O)c2cc(NC(=O)c3ccccn3)ccc21 | i | 0.72 | 0.5%
Cc1ccn2c(NC3CCCCC3)c(C)nc2c1 | i | 1.07 | -0.8%
CCN(CC)c1nc(C#N)cc(-c2ccc(OC)cc2)n1 | i | -1.51 | 3.3%
CCOc1ccccc1NS(=O)(=O)N(C)C | i | / | 3.4%
CCN1C(=O)CC(C(=O)NC)SC1=Nc1cc(Cl)c(O)c(Cl)c1 (stereo unspecified) | i | 0.72 | 4.7%
O=C(CNC(=O)c1ccccc1)OC(C(=O)Nc1cc(C(F)(F)F)ccc1Cl)c1ccccc1 (stereo unspecified) | i | / | 3.5%
CCCOc1ccc(N2C(=O)C3ON(c4ccccc4)C(CCC)C3C2=O)cc1 (stereo unspecified) | i | / | -0.5%
Cc1ccc(Cn2c(-n3nc(C)cc3C)nc3c2c(=O)[nH]c(=O)n3C)cc1 | i | 0.82 | 0.7%
N#Cc1c(-c2ccc(F)cc2)noc1N | i | / | -2.8%
CN1C(=O)CSc2ccc(NC(=O)N3CCN(c4ccccn4)CC3)cc21 | i | -0.31 | -7.6%
CCOc1ccc(NC(=O)N2CCC(NC(=O)C(Cc3ccc(OC)c(OC)c3)NC(C)=O)CC2)cc1 (stereo unspecified) | i | / | -0.7%
O=C(C1CCN(Cc2ccccc2)CC1)N1CCCC1 | i | 0.02 | 1.8%
COc1ccc(S(=O)(=O)N2CCC(C(=O)NCCC3=CCCCC3)CC2)cc1OC | i | -0.63 | 4.1%
O=c1[nH]c(-c2ccccn2)nc2ccccc12 | i | 0.93 | 2.2%
COc1ccc(S(=O)(=O)N2CCCC(C(=O)N3CCCCCC3)C2)cc1 (stereo unspecified) | i | -0.56 | 2.9%
COC(=O)Cc1[nH]nc2c1C1(C(=O)N(Cc3ccccc3)c3ccccc31)C(C#N)=C(N)O2 (stereo unspecified) | i | -0.69 | 7.9%
COCc1nnc(NS(=O)(=O)c2ccc(C)cc2)s1 | i | -0.92 | -0.6%
COc1ccc(C2N(c3ccc(F)cc3)C(=O)C3CCCN32)cc1 (stereo unspecified) | i | -0.76 | 2.9%
Cc1nc(CSc2ccc(Cl)cc2)cc(NCc2ccccc2)n1 | i | / | -1.6%
CC1=C(C(=O)OC(C)C)C(c2ccncc2)n2ncnc2N1 (stereo unspecified) | i | 0.11 | 5.9%
CCOc1ccc2nc3ccc4[nH]onc4c3c2c1 | i | 0.09 | -1.2%
COC(=O)CCC(=O)Nc1cccc2ccccc12 | i | / | 1.7%
O=C(NCc1ccc2c(c1)OCO2)C1CCN(C(=O)Nc2ccc(Cl)cc2)CC1 | i | -0.16 | -2.8%
CCc1nnc(NC(=O)CSc2nnc3scc(-c4ccc(C)cc4)n23)s1 | i | 0.78 | -0.2%
CCOC(=O)Cc1cc(=O)n2[nH]c(C)c(C#N)c2n1 | i | / | 2.3%
COCCNc1cc(C)nc2ccccc12 | i | 0.14 | 10.7%
CCn1c(SCC(=O)N2CCC(C(N)=O)(N3CCCCC3)CC2)nc2ccccc2c1=O | i | 0.49 | 4.8%
CCCCC(=O)Nc1cc(NC(=O)CCCC)cc(C(=O)O)c1 | i | -0.09 | -0.3%
CC(=O)NC(Cc1ccc(C)cc1)C(=O)NC1CCN(C(=O)c2cnccn2)CC1 (stereo unspecified) | i | 0.23 | 4.2%
CCOC(=O)c1ccc(N2C(=O)CC(N3CCC(O)(c4ccc(Cl)cc4)CC3)C2=O)cc1 (stereo unspecified) | i | 2.02 | -0.1%
CN(C)c1ccnc2sc3c(=O)n(-c4ccc(Cl)cc4)cnc3c12 | i | / | -0.4%
CSc1ncccc1C(=O)OCn1nnc2ccccc2c1=O | i | 0.98 | 1.3%
COc1ccc(CNC(=O)c2csnn2)cc1 | i | 1.94 | 0.9%
O=C(COc1cccc(-n2cnnn2)c1)N1CCOCC1 | i | -0.57 | 0.2%
COc1cc(NC(=O)CS(=O)(=O)c2ccccc2)cc(OC)c1OC | i | -0.18 | 1.0%
O=C(Cn1c(=O)oc2ccccc21)NCc1ccco1 | i | -0.17 | -8.2%
CCOC(=O)c1[nH]c(C)c(/C(O)=C2\C(=O)C(=O)N(CCN(C)C)C2c2ccco2)c1C (stereo unspecified) | i | -0.45 | 0.9%
O=C(NCCOC(=O)C1COc2ccccc2O1)C1COc2ccccc2O1 (stereo unspecified) | i | 0.02 | 1.9%
CCOC(=O)N1CCC(NC(=O)CSCc2nc(-c3sccc3C)oc2C)CC1 | i | 0.77 | 0.1%
COCCNC(=O)C(c1ccc(F)cc1)N(Cc1ccco1)C(=O)CCC(=O)Nc1nccs1 (stereo unspecified) | i | -0.81 | 2.2%
Cc1nn(-c2nc3ccccc3s2)c(N)c1-c1ccccc1 | i | 1.1 | 1.1%
COc1ccc(S(=O)(=O)N2CCC(C(=O)N3CCCCCC3)CC2)cc1 | i | -1.06 | 0.2%
Cc1ccc2[nH]c3c(c2c1)CN(C(=O)CN1CCSCC1)CC3 | i | -0.2 | 14.0%
O=C(NCc1ccc2c(c1)OCO2)C1COc2ccccc2O1 (stereo unspecified) | i | / | 4.2%
Cc1cc(C)c2[nH]c(=O)c(CN(Cc3ccc4c(c3)OCO4)Cc3nnnn3C3CCCC3)cc2c1 | i | -0.41 | -2.2%
C=CCOC(=O)C1=C(C)NC(SCC(=O)Nc2ccc(C)c(Cl)c2)=C(C#N)C1c1ccco1 (stereo unspecified) | i | -1.08 | 3.3%
Cc1cc(NC(=O)CCn2c(=O)sc3ccccc32)no1 | i | -0.33 | -0.1%
N#Cc1c2n(c3c(=O)n(Cc4ccc(Cl)cc4)cnc13)CCCC2 | i | 0.61 | 8.8%
